Screening results (PubChem)
gsp agonist = qHTS for Agonist of gsp, the Etiologic Mutation Responsible for Fibrous Dysplasia/McCune-Albright Syndrome: qHTS; 0.13% of 340,000 active; gsp mutant cells, cAMP HTRF, 30 min; control for the full effect not named in the record; Potency, µM (highest dose often 76.9 µM), without a hit: at the top dose activation (cAMP increase), most hits filed as activators; AID 624287, 2012; active = well fitted activation curve with a large enough effect; inconclusive = small, poorly fitted or top-dose-only effect, or another doubt; inactive = no such curve, though single readings can be large or run the other way; cell line not stated here;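 also: phosphodiesterase inhibitor Ro 20-1724 added with compounds to block cAMP breakdown; potency is read from the fitted curve at half-maximal effect; nearly all actives have a fitted effect of over 60% in size; about a fifth of the inactives were tested at one dose only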
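Cells stably selected in G418 were plated at 2000/well, grown 16-24 hr, then given compounds in DMSO with the PDE inhibitor […] (300 uM solution added) for 30 min at 37C; cAMP was read by HTRF.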
CtBP-E1A inh = qHTS Assay for Inhibitors of the CtBP/E1A Interaction; CtBP / adenovirus E1A interaction (AlphaScreen); AlphaScreen GST-E1A/His-CtBP binding, 1536-well; hits give low values; control for the full effect not named in the record; activity change, % (no concentration beside the values); 0.49% of 340,000 active; in the data active means activity change below about -65%; inconclusive means about -30% to -65%; inactive means above about -30%; also: % is scaled to controls: 0 for no effect and ±100 for the full control effect; compound concentration not given in the record
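Steps: dispense buffer (Tris pH 8.0, NaCl 300 mM, TCEP 1 mM, BSA, Tween 20); add 5X protein mix (GST-E1A, His-CtBP, 125 nM each); pin 23 nL compound; 2 h at 37 °C, dark; add 5X beads (50 ug/mL); 1 h; read.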
ClpP mod = qHTS Assay for Activators of ClpP; purified B. subtilis ClpP, FRET peptide cleavage, 20 min; AID 651965, 2013; ATP-dependent Clp protease proteolytic subunit (Bacillus subtilis (strain 168)), P80244; 1.9% of 340,000 active; Potency, µM (series often up to 57.5 µM), inactives show top-dose activity change, negative = active; active = well fitted falling curve with a large enough effect; inconclusive = small, poorly fitted or top-dose-only effect; inactive = no such curve, though single readings can be large or run the other way; also: potency is read from the fitted curve at half-maximal effect; the source files actives as falling curves though it sought activators and does not explain the sign; nearly all actives have a fitted effect of over 65% in size; many hits overshoot -100%
Target sequence (P80244 whole entry, looked up): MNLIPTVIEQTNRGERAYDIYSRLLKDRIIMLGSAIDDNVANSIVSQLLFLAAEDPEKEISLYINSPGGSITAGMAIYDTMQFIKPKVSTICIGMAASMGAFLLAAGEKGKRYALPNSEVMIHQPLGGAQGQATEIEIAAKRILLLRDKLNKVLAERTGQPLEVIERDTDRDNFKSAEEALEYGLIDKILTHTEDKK
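FRET quenching reversal measured ClpP activation: 10 microg/mL B. subtilis ClpP at pH 8 with the FRET-FV decapeptide, read at 430 nm after 320 nm excitation. The 20-min minus 0-min signal was scaled between DMSO/no-enzyme wells and ADEP (5.8 microM final).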
gsp antag = qHTS for Antagonists of gsp, the Etiologic Mutation Responsible for Fibrous Dysplasia/McCune-Albright Syndrome: qHTS; gsp-mutant cells, cAMP HTRF, 30 min; control for the full effect not named in the record; AID 624288, 2012; 0.4% of 340,000 active; Potency, µM (top dose mostly 76.9 µM), inactives show at the top dose activity change, negative = inhibition, hits mostly inhibitors; active = falling curve of any shape with a large fitted effect; inconclusive = falling curve, mostly with a smaller effect; inactive = flat or rising curve; cell line not stated here;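 also: intracellular cAMP measured with PDE inhibitor Ro 20-1724 present during compound exposure; potency is read from the fitted curve at half-maximal effect; % is scaled to controls: 0 for no effect and ±100 for the full control effect; nearly all actives have a fitted effect of over 65% in size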
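G418-selected cells were plated in DMEM/10% FBS for 16-24 h at 37C, then treated with compounds plus the PDE inhibitor […] (300 uM solution added) for 30 min at 37C. Intracellular cAMP was measured by HTRF after 30 min lysis at room temperature.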
Sfp inh = qHTS Assay for Inhibitors of Bacillus subtilis Sfp phosphopantetheinyl transferase (PPTase); 4'-phosphopantetheinyl transferase ffp (Bacillus subtilis), Q9F4F7; Biochemical Sfp PPTase activity, qHTS; Potency, µM, inactives show max response, negative = inhibition, usual class: inhibitors; 3.5% of 310,000 active; AID 1490, 2009; active = well fitted inhibition curve with a large enough effect; inconclusive = small, poorly fitted or top-dose-only effect, or another doubt; inactive = no such curve, though single readings can be large or run the other way;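 also: the enzyme is Sfp with the accession as filed and its product quenches rhodamine fluorescence; potency is read from the fitted curve at half-maximal effect; 0% = enzyme reaction without inhibitor and -100% = no enzyme wells; top concentration of the series not given in the record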
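Fluorescence-quenching assay with 15 nM Sfp, 5 uM rhodamine-CoA and 12.5 uM BHQ-2-labelled ybbR peptide in pH 7.6 Hepes/MgCl2 buffer. Enzyme was pre-incubated with compound for 15 min at room temperature. Rate was taken from the 30-min fluorescence change (525/598 nm).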
TRPV1 PAM = HTS Assay for Compounds that Act as Potentiators of the Vanilloid Receptor 1; potentiation, % at 8.33 µM; 0.02% of 320,000 active; Transient receptor potential cation channel subfamily V member 1 (Homo sapiens), Q8NER1; TRPV1-expressing cells, Fluo-8 calcium influx, capsaicin EC20 potentiation; host cell line not named in the record; control for the full effect not named in the record; active means potentiation above 80%; inconclusive means 30% to 80%; inactive means below 30%; also: 0% is about no effect
Target sequence (Q8NER1 whole entry, looked up): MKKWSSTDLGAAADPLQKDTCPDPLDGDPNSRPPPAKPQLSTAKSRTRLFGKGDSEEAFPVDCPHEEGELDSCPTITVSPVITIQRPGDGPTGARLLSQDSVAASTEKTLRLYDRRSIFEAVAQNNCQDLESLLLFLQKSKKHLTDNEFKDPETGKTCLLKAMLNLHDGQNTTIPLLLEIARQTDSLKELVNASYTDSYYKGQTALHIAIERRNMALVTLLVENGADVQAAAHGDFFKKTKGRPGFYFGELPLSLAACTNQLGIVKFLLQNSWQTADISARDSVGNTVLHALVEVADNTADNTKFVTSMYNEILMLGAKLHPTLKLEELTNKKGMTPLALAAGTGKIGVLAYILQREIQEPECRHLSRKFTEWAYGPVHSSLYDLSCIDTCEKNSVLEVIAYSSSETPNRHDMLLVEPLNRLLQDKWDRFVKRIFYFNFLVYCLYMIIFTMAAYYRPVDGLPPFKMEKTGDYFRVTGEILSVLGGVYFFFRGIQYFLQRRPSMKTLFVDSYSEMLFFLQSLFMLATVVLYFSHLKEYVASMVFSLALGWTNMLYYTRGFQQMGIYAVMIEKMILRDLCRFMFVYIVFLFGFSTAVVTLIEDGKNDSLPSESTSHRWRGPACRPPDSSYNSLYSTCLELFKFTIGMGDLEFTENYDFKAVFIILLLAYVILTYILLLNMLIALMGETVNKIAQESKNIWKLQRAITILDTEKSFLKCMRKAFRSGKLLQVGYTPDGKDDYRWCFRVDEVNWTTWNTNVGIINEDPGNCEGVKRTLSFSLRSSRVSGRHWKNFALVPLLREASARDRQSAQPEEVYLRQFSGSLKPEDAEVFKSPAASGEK
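TRPV1-expressing cells were cultured overnight at 35.5C and loaded with Fluo-8 calcium dye for 40 to 90 min at room temperature. After a 10 s baseline, compound was added and calcium influx was read kinetically for 3 min (ex 480/em 520 nm).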
Menin MLL FP FL = qHTS Assay for Inhibitors Targeting the Menin-MLL Interaction in MLL Related Leukemias: Competition With Fluorescein Labeled MLL-derived Peptide; AID 1766, 2009; Fluorescence polarization, fluorescein-MLL peptide displacement from menin; FP activity change, % at 61.4 µM; 290,000 tested, under 10 active; inconclusive = falling polarisation curve, or a change in total fluorescence; inactive = total fluorescence flat and polarisation flat or rising; no compound was filed as active; the % refers to the polarisation; negative = inhibition;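 also: % of control where 0% means no effect; inhibitors lower the polarisation; unlabelled MLL peptide was the positive control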
Numbers without * were called inactive; ? = inconclusive; nt = no result given; [ ] = dose if it differs, or a comment. Some of the compounds tested (hit frequency here may not be typical).

item | Structure | gsp agonist | CtBP-E1A inh | ClpP mod | gsp antag | Sfp inh | TRPV1 PAM | Menin MLL FP FL
1 | O=C1NC(=O)C(CCc2ccncc2)(CCc2ccncc2)C(=O)N1CCc1ccc(F)cc1 | -2%[15.4 µM] | 1 | 0.5% | -15% | 13% | -9 | 0.0
2 | O=C(Nc1ccc(Cl)cc1)Nc1nccs1 | -37%[inhibitor] | -3 | 1.6% | -2% | ? | -21 | 2.6
3 | CCOc1cccc(N2C(=O)CC(=O)NC2=O)c1 | 5% | 0 | -2.4% | 10% | ? | 3 | ?
4 | COc1ccc(C2SCC(=O)Nc3c2c(=O)[nH]n3C2CCCCCC2)cc1OC (stereo unspecified) | -2% | -8 | -1.0% | -3% | -11% | 13 | 0.0
5 | C=CC(=O)NCNC(=O)C=C | nt | -7 | -3.9% | -3% | nt | -11 | nt
6 | FC(F)(F)c1ccc(CN2CCNCC2)cc1 | 3%[15.4 µM] | 1 | nt | 13% | 16% | -13 | -2.1
7 | O=C(N/N=C/c1c(O)n(Cc2ccccc2)c(=O)[nH]c1=O)c1ccccc1 | 17% | -73* | -14% | 0% | 23% | -2 | 3.3
8 | CC(C)CNC(=O)c1c(N)n(Cc2ccco2)c2nc3ccccc3nc12 | 11% | 11 | 22µM* | 15% | 32µM* | -2 | ?
9 | O=C(O)C(Br)CBr (stereo unspecified) | nt | 6 | -1.6% | 4% | nt | -1 | nt
10 | O=[N+]([O-])c1ccccc1CN1CC=C(c2ccc(F)cc2)CC1 | 17% | 0 | -4.6% | -1% | -18% | 3 | 0.5
11 | C[C@H](CO)N1C[C@H](C)[C@H](CN(C)C(=O)Nc2cccc3ccccc23)Oc2c(NC(=O)c3ccc(-c4nccs4)cc3)cccc2C1=O | nt | -9 | -11% | ? | nt | nt | nt
12 | CCCCNC(=O)CN1C(=O)CN=C(c2ccccc2)c2ccccc21 | 3% | nt | -0.5% | -2% | 20% | -5 | -9.4
13 | O=C(O)[C@H]1NC[C@H]2C[C@H]21 | -60%[inhibitor] | -1 | nt | 12% | -2% | 2 | -4.1
14 | CCCCOC(=O)C1=C(N)OC2=C(C(=O)CCC2)[C@]12C(=O)Nc1ccccc12 | 1% | 14 | 0.3% | 13% | 14% | 5 | 3.8
15 | N#CCCn1cc(C=C2C(=O)NC(=O)NC2=O)c(-c2ccccc2)n1 | -41%[inhibitor] | 3 | 1.0% | -3% | -24% | 13 | -3.8
16 | O=c1[nH]c(=O)n(-c2ccc(F)cc2)c(O)c1C=NCCN1CCCCC1 | 3% | 6 | nt | 8% | 10% | 6 | 1.4
17 | CN1CCCC(C(=O)c2ccccc2)C1 (stereo unspecified) | 27% | 5 | -0.4% | 14% | 13% | -5 | 2.0
18 | CN1C(=O)CN=C(c2ccccc2Cl)c2cc(Br)ccc21 | 6% | -4 | -1.8% | -13% | 19% | 7 | 2.2
19 | CN1CCc2nc(SC(C(=O)O)c3ccccc3)c(C#N)c(-c3cccs3)c2C1 (stereo unspecified) | ? | -26 | nt | 3% | ? | -2 | ?
20 | CCOc1ccc(C(C)=O)cc1Cc1c(O)[nH]c(=S)[nH]c1=O | 1% | nt | 0.1% | -1% | 45µM* | -9 | 0.0
21 | N#CC1c2ccccc2-n2nncc2CN1S(=O)(=O)c1ccc(Cl)cc1 (stereo unspecified) | nt | -11 | -0.8% | -6% | nt | nt | nt
22 | Nc1ccc(N2CCN(Cc3ccccc3Cl)CC2)c(Cl)c1 | 25% | -20 | -2.4% | -1% | 13% | 2 | 1.0
23 | O=C1NC(=O)C(=Cc2ccccc2Oc2ccc(F)cc2)C(=O)N1 | 7%[15.4 µM] | -1 | nt | 2% | 45µM* | -13 | -0.3
24 | CCn1c(O)c(N=Nc2cccc(S(=O)(=O)N3CCOCC3)c2)c(=O)n(CC)c1=S | ? | -1 | -0.1% | -10% | 7% | 4 | -3.3
25 | CNC(=O)Oc1cc2c(cc1C(C)(C)C)CCC2 | ? | 1 | nt | -2% | nt | nt | nt
26 | COc1ccc(C2SCC(=O)Nc3c2c(=O)[nH]n3C2CCCCC2)cc1 (stereo unspecified) | 13% | -2 | 0.1% | 9% | 20% | -3 | 0.2
27 | CN(C)CCc1nn[nH]n1 | 0% | 6 | -1.4% | -2% | -26% | -5 | 0.0
28 | O=C(c1cccn2c(=O)c3ccc(Cl)cc3nc12)N1CCC2(CC1)OCCO2 | -99%[inhibitor] | 5 | 4.4% | 2% | 8% | -10 | -1.8
29 | CCOP(=O)(OCC)C(NC(=O)c1cccc(C)c1)C(Cl)(Cl)Cl (stereo unspecified) | 2% | nt | 3.3% | 8% | 8% | -1 | 5.3
30 | CCC1(CC)C(=O)NC(=Nc2cccc(C(F)(F)F)c2)NC1=O | -3% | 2 | -1.6% | -23% | 0% | -27 | 1.5
31 | CC(=O)Nc1ccc(C=C2C(=O)NC(=O)NC2=O)cc1 | 6% | -24 | -4.4% | -3% | nt | nt | nt
32 | COc1cc(CN2CC3CC(C2)c2cccc(=O)n2C3)cc(OC)c1OC (stereo unspecified) | 18% | 1 | -0.5% | -6% | -4% | -1 | 2.1
33 | COP(=O)(Cc1ccc(C#N)o1)OC | -8%[15.4 µM] | 22 | 0.3% | 6% | 18% | -6 | 2.4
34 | C=CCN1C(=O)NC(=O)/C(=C/c2ccc(OC)c(CSc3ccccn3)c2)C1=O | ? | 7 | 2.1% | 7%[15.4 µM] | 56µM* | 30 | 23
35 | COc1ccccc1CN1CCCC(C(=O)c2ccccc2SC)C1 (stereo unspecified) | -3%[15.4 µM] | -2 | -28% | 7% | -1% | 5 | 2.8
36 | Cc1ccccc1C(=O)N1CC1C (stereo unspecified) | -84%[inhibitor] | 2 | -1.6% | 5% | nt | nt | nt
37 | CCCOC(=O)c1c(N)n(Cc2cccs2)c2nc3ccccc3nc12 | -32% | 18 | ? | 9% | 4% | 7 | -4.7
38 | Cc1ccc(C2NC(=S)NC(c3ccc(C)cc3)C23C(=O)NC(=O)NC3=O)cc1 (stereo unspecified) | -44% | -6 | 0.3% | -7% | -9% | 5 | -0.5
39 | COc1cccc(-c2nc3ccc(N4CCN(C)CC4)cc3[nH]2)c1 | ? | 9 | 3.5% | -10% | -7% | 2 | 0.6
40 | COc1ccc(-n2c(O)c(/C=C3\C=Nc4ccccc43)c(=O)[nH]c2=O)cc1 | -4% | nt | -0.6% | -8% | -11% | 24 | ?
41 | C#CCNc1ccncc1S(=O)(=O)NC(=O)NC(C)C | ? | 2 | 1.9% | 10% | 0% | -4 | 3.2
42 | Cc1cc(OCC(=O)N[C@H](C(=O)O)c2ccccc2)c2c3c(c(=O)oc2c1)CCC3 | nt | ? | 4.7% | 0% | 27% | -6 | -1.5
43 | Nc1ncc([N+](=O)[O-])s1 | nt | -21 | -0.7% | -1% | nt | 0 | nt
44 | O=P(OCC(F)(F)C(F)F)(N1CCCCC1)N1CCCCC1 | -28% | -3 | -3.6% | 10% | 16% | -6 | 1.1
45 | O=S1(=O)CC2(N3CCOCC3)CCCCC21 (stereo unspecified) | -53%[inhibitor] | 4 | 0.0% | 1% | 4% | -6 | 1.6
46 | CCC(C)(C)c1ccc(O)cc1 | nt | -7 | -1.0% | -4% | 10% | 1 | -1.2
47 | O=C(Nc1cccc(Cl)c1)N1C[C@H]2C[C@@H](C1)c1cccc(=O)n1C2 | nt | 3 | 2.6% | 4% | 12% | 4 | -3.0
48 | Cn1cc(C(=O)OCC(=O)NC2(C#N)CCCCC2)c2ccccc21 | 8%[15.4 µM] | 3 | 0.4% | 1% | nt | -7 | nt
49 | Cc1oc(-c2cccs2)nc1CSCC(=O)N1CCC2(CC1)OCCO2 | -19% | -9 | 1.4µM* | 0% | 20% | 10 | 0.6
50 | Cc1ncc(CN2CCCC(C(=O)c3sccc3C)C2)s1 (stereo unspecified) | -2% | -4 | -0.1% | 9% | 10% | 3 | -0.6
51 | O=C1N[C@H](Cc2ccccc2)C(=O)N2[C@@H]3[C@H](C[C@@H]12)c1ccccc1N3OOSc1ccccc1 | -1% | -3 | -1.4% | -3% | nt | nt | nt

Gathered by group: the compounds so far containing an NH in an aromatic ring.
item | Structure | gsp agonist | CtBP-E1A inh | ClpP mod | gsp antag | Sfp inh | TRPV1 PAM | Menin MLL FP FL
4 | COc1ccc(C2SCC(=O)Nc3c2c(=O)[nH]n3C2CCCCCC2)cc1OC (stereo unspecified) | -2% | -8 | -1.0% | -3% | -11% | 13 | 0.0
7 | O=C(N/N=C/c1c(O)n(Cc2ccccc2)c(=O)[nH]c1=O)c1ccccc1 | 17% | -73* | -14% | 0% | 23% | -2 | 3.3
16 | O=c1[nH]c(=O)n(-c2ccc(F)cc2)c(O)c1C=NCCN1CCCCC1 | 3% | 6 | nt | 8% | 10% | 6 | 1.4
20 | CCOc1ccc(C(C)=O)cc1Cc1c(O)[nH]c(=S)[nH]c1=O | 1% | nt | 0.1% | -1% | 45µM* | -9 | 0.0
26 | COc1ccc(C2SCC(=O)Nc3c2c(=O)[nH]n3C2CCCCC2)cc1 (stereo unspecified) | 13% | -2 | 0.1% | 9% | 20% | -3 | 0.2
27 | CN(C)CCc1nn[nH]n1 | 0% | 6 | -1.4% | -2% | -26% | -5 | 0.0
39 | COc1cccc(-c2nc3ccc(N4CCN(C)CC4)cc3[nH]2)c1 | ? | 9 | 3.5% | -10% | -7% | 2 | 0.6
40 | COc1ccc(-n2c(O)c(/C=C3\C=Nc4ccccc43)c(=O)[nH]c2=O)cc1 | -4% | nt | -0.6% | -8% | -11% | 24 | ?
